# CBX7 AlphaScr: inhibitors of human CBX7 binding to H3K27me3 peptide. actives 1.1% (n = 66,000). O95931. AID 1224903. normalised signal (fraction of DMSO) (concentration not given with the values). AlphaScreen His6-CBX7 / biotin-H3K27me3 peptide binding; hits give low values; in the data active means normalised signal below about 0.5;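 further: 100 nL library stock added to about 20 µL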
# Target sequence (O95931 whole entry, looked up): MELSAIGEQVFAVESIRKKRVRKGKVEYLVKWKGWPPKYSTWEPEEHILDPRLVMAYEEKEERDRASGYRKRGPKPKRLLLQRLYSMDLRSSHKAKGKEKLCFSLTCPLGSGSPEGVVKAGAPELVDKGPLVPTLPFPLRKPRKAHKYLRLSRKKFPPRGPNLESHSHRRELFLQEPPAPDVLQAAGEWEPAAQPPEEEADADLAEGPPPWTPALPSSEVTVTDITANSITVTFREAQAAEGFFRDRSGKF
# CBX7 AlphaScr z-score: recorded beside CBX7 AlphaScr, whose call it bears; z-score; measured here: z-score of CBX7 signal; some inactives read as strong as hits; reference of the scale not given here;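 same signal on another scale; lower means less binding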
# * = called active by the depositor; ! = not confirmed by another sample. The list is partial; rates above refer to the full screens.
# Preview:
SMILES	CBX7 AlphaScr	CBX7 AlphaScr z-score
CCOc1cc(O)c(-c2[nH]ncc2Oc2ccccc2)cc1CC	0.648	-5.46
CC1CCN(S(=O)(=O)c2ccc3[nH]cc(C(=O)NCc4ccc(F)cc4)c(=O)c3c2)CC1	1.14	2.09

# The whole of this part, previewed entries included:
SMILES	CBX7 AlphaScr	CBX7 AlphaScr z-score
CCOc1cc(O)c(-c2[nH]ncc2Oc2ccccc2)cc1CC	0.648	-5.46
CC1CCN(S(=O)(=O)c2ccc3[nH]cc(C(=O)NCc4ccc(F)cc4)c(=O)c3c2)CC1	1.14	2.09
COc1ccc(OC)c(NC(=O)CCCN2C(=O)c3cccnc3C2=O)c1	0.77	-3.87
CCOC(=O)c1c(C)n(-c2ccc(OC)cc2)c2ccc(OCC(N)=O)cc12	0.736	-3.02
Cc1cc(Nc2cc(F)ccc2C)n2ncnc2n1	1.1	2.24
COC(CNC(=O)c1ccc2c(c1)N(Cc1cc(C)ccc1C)C(=O)c1ccccc1S2)OC	0.765	-4.42
Clc1ccc(-c2csc(Nc3ccc(Br)cc3)n2)cc1Cl	0.462*!	-9.3*!
Cc1ccc(Nc2c(-c3cc(Br)ccc3F)nc3cc(C)ccn23)cc1	0.821	-6.71
CCC(C)NC(=O)c1cc2sc(Cl)cc2n1C (stereo not drawn)	1.01	0.289
Cc1cccc(C)c1NC(=O)C(NC(=O)c1ccc(-n2cnnn2)cc1)c1ccc(O)cc1 (stereo not drawn)	1.04	0.942
CCCOc1ccc(-c2ccc(-c3noc(-c4cccc(Br)c4)n3)cc2)cc1	1.07	1.8
Cc1ccccc1-c1nc2cc(NC(=O)C(C)C)ccc2o1	0.963	-0.496
COc1cccc(C(=O)Nc2ccc(Cl)c(-c3nc4ccccc4o3)c2)c1	0.945	-1.13
CCC(=O)N1CCc2cc(S(=O)(=O)N3CCN(CC)CC3)ccc21	1.1	1.93
COc1ccc(CCNC(=O)c2c[nH]n3c(=O)c(Cc4ccc(C)cc4)c(C)nc23)cc1OC	0.944	-1.3
CC(=O)N1N=C(c2ccccc2)Cn2c1nc1ccccc12	0.981	-0.494
COc1ccc(NC(=O)C2(c3ccccc3)CCOCC2)c(OC)c1	0.745	-6.04
O=C(Nc1ccc(Cl)c(Cl)c1)Nc1nc2ccccc2s1	1.23	1.67
O=C(NCc1ccccn1)c1csc2c1CCCCC2	0.988	-0.398
NC(=O)c1c(N)ncc2c1CCC2	0.966	-0.443
Cc1ccc(OCC(=O)N(Cc2nc(-c3ccc(Cl)cc3)no2)C(C)C)c(C)c1	0.927	-0.725
CCOc1ccc(-n2c(Cc3cc(=O)[nH]c(=O)[nH]3)nnc2SCC(=O)Nc2ccccc2F)cc1	0.905	-1.46
COc1ccc(CN2CCC(N3CCCCC3)CC2)cc1OCc1ccccc1	0.966	-1.11
COCCn1c(=O)[nH]c2cc(C(=O)NCc3ccc(Cl)cc3)ccc2c1=O	1.01	0.445
CC1CCN(S(=O)(=O)c2cccc(C(=O)Nc3ccccc3C(=O)N3CCCCCC3)c2)CC1	1.03	0.515
Cc1oc(-c2cccs2)nc1CN1CCCC(C(=O)NC2CCCCCCC2)C1 (stereo not drawn)	0.622	-2.88
Cc1ccccc1CN1C(=O)c2ccccc2S(=O)c2ccc(C(=O)N3CCCC3)cc21 (stereo not drawn)	0.886	-1.84
O=C(NC1CCCC1)C1c2cccn2CC(=O)N1Cc1ccccc1Cl (stereo not drawn)	0.953	-0.921
CCCS(=O)(=O)N1CCCC(C(=O)NCCc2ccc(Cl)cc2)C1 (stereo not drawn)	1.03	1.64
C=CCNC(=O)c1ccc2c(c1)N(Cc1cccc(C)c1)C(=O)CS2	0.931	-0.749
Cc1ccc(-c2nc3nc[nH]n3c2Nc2ccccc2)cc1	0.917	-1.8
COc1ccc(C(=O)Nc2c(-c3ccccc3)nc3ccccn23)cc1OC	0.991	-0.286
CCOc1ccc(C2CC(=O)NC3=C2C(=O)CCC3)cc1OC (stereo not drawn)	0.955	-0.574
O=C(Nc1ccc(F)cc1)Nc1nc2ccccc2s1	1.12	2.45
COC(=O)c1ccc(NC(=O)Cn2cnc3c(nnn3Cc3ccc(C)cc3)c2=O)cc1	0.94	-0.993
COc1ccccc1-c1c(C)nn2c(NC(C)CCc3ccccc3)cc(C)nc12 (stereo not drawn)	0.986	-0.379
CCCOc1ccc(Cn2c(C(C)O)nc3ccccc32)cc1 (stereo not drawn)	1.15	1.39
Cc1cc2ccccc2c(=O)n1CC(=O)NCC(=O)N1CCC(Cc2ccccc2)CC1	0.928	-0.725
CCOC(=O)N1CCN(C(=O)c2c(-c3ccccc3Cl)noc2C)CC1	1.05	0.228
Cc1cccc(C(=O)Nc2nnc(-c3ccccc3Cl)s2)c1	1.05	1.96
O=C1CCc2cc(S(=O)(=O)NC(Cc3ccccc3)C(=O)NCc3ccccc3)ccc2N1 (stereo not drawn)	0.987	-0.252
CCC(C)NS(=O)(=O)c1ccc2c(c1)CCN2C(C)=O (stereo not drawn)	1.23	2.39
Cc1ccc(-c2nnc(N3CCOCC3)c3ccccc23)cc1S(=O)(=O)NCc1nc2ccccc2[nH]1	0.965	-0.905
O=C(NCCc1ccccc1Cl)c1nc2c(nnn2Cc2ccccc2)c(=O)[nH]1	0.947	-1.21
COc1ccc(Nc2cc(C(=O)N3CCCC3)c3ccccc3n2)c(OC)c1	0.933	-1.03
CN(CCCNC(=O)c1ccc2nc(N3CCOCC3)sc2c1)C1CCCCC1	1.3	2.77
CCCCN(C)S(=O)(=O)c1ccc(C(=O)Nc2nc(-c3ccccn3)cs2)cc1	0.0979*	-1.07*
COc1ccc(OC)c(NC(=O)c2c(NCc3cccc(F)c3)sc3c2CCC3)c1	0.887	-1.22
COc1ccc(-c2noc(-c3ccc(C)c(C)c3)n2)cc1	1.17	4.02
COc1cc2c(C(=O)NCc3ccc4c(c3)OCO4)cn(CC(C)C)c(=O)c2cc1OC	1.07	3.1
O=C(NCC1(c2ccccc2)CCOCC1)c1ccccc1Cl	1.07	2.07
CC1CCCCN1c1nnc(NC(=O)c2cc(-c3ccc(Br)cc3)on2)s1 (stereo not drawn)	0.925	-0.297
COc1ccc(NC2c3ccccc3C(=O)N2c2ccc(C)cn2)c(OC)c1 (stereo not drawn)	0.868	-4.31
COc1ccc(OC)c2[nH]c(=O)c(CCNC(=O)CCCc3ccccc3)cc12	0.998	-0.0657
Cc1ccc(-c2csc(NC(=O)c3ccc(S(=O)(=O)N4CCOCC4)cc3)n2)cc1C	1	0.0794
O=C(NC1CC1)c1ccc2c(c1)N(Cc1ccc(F)cc1)C(=O)CS2	1.04	0.351
Cc1ccc(OCc2nnc(NC(=O)c3ccccc3F)s2)cc1	1.08	0.885
CCN(CCCNC(=O)CN1C(=O)COc2ccccc21)c1ccccc1	0.959	-1.36
COC(=O)CNC(=O)CNC(=O)c1nn(-c2ccc(OC)c(OC)c2)c(=O)c2ccccc12	1.02	0.336
Cc1ccc(-c2nc(CSCC(=O)Nc3cc(C)on3)c(C)o2)cc1	1.14	1.74

# A draw from above in order of SMILES length, lowest first:
SMILES	CBX7 AlphaScr	CBX7 AlphaScr z-score
COc1ccc(-c2noc(-c3ccc(C)c(C)c3)n2)cc1	1.17	4.02
Cc1ccc(-c2nc(CSCC(=O)Nc3cc(C)on3)c(C)o2)cc1	1.14	1.74
CN(CCCNC(=O)c1ccc2nc(N3CCOCC3)sc2c1)C1CCCCC1	1.3	2.77
COc1cc2c(C(=O)NCc3ccc4c(c3)OCO4)cn(CC(C)C)c(=O)c2cc1OC	1.07	3.1
Cc1ccc(-c2csc(NC(=O)c3ccc(S(=O)(=O)N4CCOCC4)cc3)n2)cc1C	1	0.0794
COC(=O)CNC(=O)CNC(=O)c1nn(-c2ccc(OC)c(OC)c2)c(=O)c2ccccc12	1.02	0.336

# (listing goes on)
SMILES	CBX7 AlphaScr	CBX7 AlphaScr z-score
Cc1c(C(=O)NCc2cccnc2)oc2ccc(S(=O)(=O)N3CCCCCC3)cc12	0.841	-2.88
Cc1cc(=O)n2nc(N3CCC(C(=O)N4CC(C)CC(C)C4)CC3)sc2n1 (stereo not drawn)	1.03	1.73
COc1ccccc1CNC(=O)C1CCN(S(=O)(=O)c2cnc[nH]2)CC1	0.868	-1.56
Cc1ccc(-c2cc(C(=O)NCCCN3CCN(Cc4ccccc4)CC3)c3ccccc3n2)cc1C	0.878	-2.77
Cc1onc(-c2ccccc2Cl)c1C(=O)Nc1nccs1	1.05	0.838
O=C(CSc1nnc(Cc2cc(=O)[nH]c(=O)[nH]2)n1-c1ccccc1)NC1CCCCC1	1.06	2.01
CNC(=O)CCN1N=C(c2ccc(OC)cc2)CCC1=O	1.08	1.06
COc1ccc(-c2noc(-c3ccc(C)cc3Cl)n2)cc1	1.17	1.67
COCCCNC(=O)C1CCN(C(=O)c2sccc2-n2cccc2)CC1	0.934	-1.57
COCCCNC(=O)CN1CCN(Cc2cccc(C)c2)C1=O	0.95	-1.03
Clc1ccc(OCc2nc3ccccc3[nH]2)cc1	1.17	1.65
Cc1ccc(Cl)cc1NC(=O)C1CCN(Cc2cnn(-c3ccccc3)c2-n2cccc2)CC1	1.01	0.418
COc1ccccc1-c1cc2nc(C)c(CCC(=O)Nc3ccc4c(c3)OCO4)c(C)n2n1	0.775	-8.41
Cc1ccc(NC(=O)CC2Oc3ccccc3NC2=O)cc1Cl (stereo not drawn)	0.993	-0.132
COc1ccc(S(=O)(=O)NCc2ccc(C(=O)NCc3ccccc3OC)cc2)cc1	0.915	-1.48
O=C(NC1CCCC1)c1ccc2c(c1)N(Cc1cccc(F)c1)C(=O)c1ccccc1S2	0.949	-1.43
CCCc1nn(-c2ccccc2F)c2c1C(=O)CC(c1ccccc1)C2 (stereo not drawn)	1	0.0549
CCCCCCOc1ccccc1NC(=O)Cn1nnc(-c2ccccc2)n1	1.33	3.74
CCN1C(=O)c2ccccc2S(=O)(=O)c2ccc(C(=O)NC(C)C)cc21	0.924	-1.22
C=CCn1c(C2CC(=O)N(c3cc(C)ccc3C)C2)nc2ccccc21 (stereo not drawn)	1.1	0.613
COc1cccc(-n2ccnc2SCC(=O)Nc2cc(C(F)(F)F)ccc2Cl)c1	0.773	-8.52
O=C(CCNS(=O)(=O)c1ccc2c(c1)CCC(=O)N2)NCc1ccc2c(c1)OCO2	1.01	0.518
COc1cccc(C(=O)Nc2c3c(nn2-c2ccc(Oc4ccccc4)cc2)CSC3)c1OC	0.81	-0.189
COc1ccc(-n2nnc3c(=O)n(CC(=O)N4CCCc5ccccc54)cnc32)cc1	0.926	-1.42
Cc1ccccc1NC(=O)C1CCCN(S(=O)(=O)c2c(C)noc2/C=C/c2cccs2)C1 (stereo not drawn)	0.977	-0.409
O=C(Nc1nnc(CCS(=O)(=O)c2ccc(Br)cc2)s1)c1cccs1	1.09	1.03
Cc1nc2cc(-c3ccc(Cl)cc3)nn2c(C)c1CCC(=O)N1CCC(Cc2ccccc2)CC1	0.952	-0.951
CCOc1ccc(-n2cc(C(=O)Nc3ccc(F)cc3Cl)c3cc(OC)c(OC)cc3c2=O)cc1	0.94	-1.67
O=C(COc1nsnc1N1CCOCC1)Nc1ccc(F)cc1	1.13	2.35
CN(C)C(=O)c1cnn(-c2ccccc2)c1NC(=O)c1ccc(Br)cc1	0.916	-0.919
CC1=Nc2cc(C(=O)NCCC3=CCCCC3)ccc2Sc2ccc(Cl)cc21	0.935	-0.777
Oc1ccccc1-c1cn2cc(Cl)ccc2n1	1.04	1.65
c1ccc2c(c1)nc1n2CCN1CCNC1CCCCC1	1.18	2.01
CCCNC(=O)c1sc2nc(-c3ccccc3)cn2c1C	1.05	0.88
CCOc1ccc(-n2nc(C(=O)N(CC)CC)c3ccccc3c2=O)cc1	0.874	-1.62
CCCCNC(=O)c1nc(-c2cccc(C)c2)oc1C	0.987	-0.106
Cc1ccccc1Nc1c(-c2ccsc2)nc2c(C)cccn12	0.93	-1.26
O=C(CCc1nc(-c2ccccc2F)no1)Nc1ccc2c(c1)OCCO2	1.01	0.229
Cc1cc(C)c2c(c1)NC(=O)CC2c1cccc(Cl)c1Cl (stereo not drawn)	0.973	-0.0353
Cc1cccc(CN2C(=O)c3ccccc3S(=O)(=O)c3ccc(C(=O)N4CCOCC4)cc32)c1	1.02	0.519
CC1CCN(S(=O)(=O)c2ccc3[nH]c(=O)cc(C(=O)NCCc4ccc(Cl)cc4)c3c2)CC1	0.947	-0.987
Cc1ccccc1N1C(=O)c2ccccc2C1Nc1cccnc1 (stereo not drawn)	1.05	1.48
COc1ccc2nc(N3CCC(C(=O)NCCCN(C)C4CCCCC4)CC3)sc2c1	1.16	1.74
COc1ccc(Cn2c(CCC(=O)NC3CCCC3)nc3cccnc32)cc1	0.962	-0.729
O=C(NCc1ccccn1)c1cc(=O)[nH]c2ccc(S(=O)(=O)N3CCCCC3)cc12	0.889	-1.48
O=C(NCCN1CCc2ccccc2C1)c1ccc2c(c1)ncn2C1CCCC1	0.98	-0.61
O=C(c1cnn(-c2ccccc2)c1-n1cccc1)N1CCc2ccccc2C1	1.04	1.47
O=C(Nc1ccc(-c2noc(COc3ccccc3Cl)n2)cc1)c1ccc2c(c1)OCO2	1.12	1.58
Cc1ccc(S(=O)(=O)Nc2ccc(-c3csc(Nc4cc(Cl)cc(Cl)c4)n3)cc2)cc1	0.6	-6.32
CCC(=O)N1CCc2cc(S(=O)(=O)NCCN3CCC(Cc4ccccc4)CC3)ccc21	1.25	1.86
Cc1ccc(N2C(=O)c3ccccc3C2Nc2ccc(C)cc2C)nc1 (stereo not drawn)	0.924	-2.49
Cc1ccc(S(=O)(=O)Nc2nc3ccccc3nc2Nc2ccc(C)c(C)c2)cc1	1.04	0.725

# Compound activity (PubChem)
